From PubChem
Calb biofilm kill = mixture kills Candida albicans biofilm cells. AID 1242. C. albicans biofilm persisters + clotrimazole, fluorescence viability; primary screen in compound mixtures of four per well. inhibition, % at 7.6 µM. 120,000 tested, 0.02% active;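 active = inhibition above 30.3% in the primary screen of four-compound pools, then above 30% when the compound was retested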;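 also: compounds exposed to preformed 24 h biofilms for 48 h; the number belongs to the whole pool; some results filed as inactive read as strong as hits; inactives centre near 12; 0% = biofilm with clotrimazole alone and 100% = kill control; retested singly at about 60 µM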
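Test system: C. albicans biofilms. Buffer or medium: RPMI/MOPS medium, pH 7.0. Timing: 48 h compound exposure at 37 °C. Technique: Alamar Blue fluorescence. Evaluation: percent inhibition of biofilm viability.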
Active calls of the source: *. Some of the compounds tested; the hit share may differ from the screen's.

SMILES	Calb biofilm kill
O=C1NCCN1CCN1C(=O)c2ccccc2NC1c1ccccc1 (stereo not drawn)	0
COc1ccc(NC(=O)c2cccc(C#N)c2)cc1NS(=O)(=O)c1ccc(F)cc1	11
O=C(Cn1nnc2c(cnn2-c2ccc(F)cc2)c1=O)Nc1ccccc1C(F)(F)F	28
CC12CCC(C(=O)N(CSC(=S)N/N=C\c3ccccc3)C1=O)C2(C)C (stereo not drawn)	12
Cc1oc(S(=O)(=O)N2CCCCC2)cc1NC(=O)Nc1ccc(Cl)cc1	20
Cc1nccc2oc(=O)c(NC(=O)c3ccc(Cl)cc3)cc12	2
NS(=O)(=O)c1ccc(-n2nc(C(=O)O)cc2-c2ccc(Cl)cc2)cc1	13
Nc1nc(NC(=O)/C=C/c2ccccc2)nn1-c1ccccc1	18
Nc1nc(N2CCN(c3cccc(Cl)c3)CC2)n[nH]1	7
CCN(CCn1cccn1)C(=O)CCc1nnc(CCCc2ccccc2)o1	19
CN1N=C2c3ccccc3CCC2C1c1ccc(Cl)cc1 (stereo not drawn)	20
Cc1cccc(C(=O)n2cnnc2N)c1	-7
CN(C)C(=O)c1ccc2c(c1)n(C)c(=O)n2C	20
COc1ccc(-c2cnnc(N/N=C/c3ccc(O)c(OC)c3)n2)cc1	-2
CC(C(=O)Nc1cccc(Br)c1)c1ccc([N+](=O)[O-])cc1 (stereo not drawn)	15
COc1ccc(NC(=S)N2CCN(Cc3ccc(C)cc3)CC2)cc1	16
CCCS(=O)(=O)N1CCN=C1SCc1cccc2ccccc12	12
CC(C)c1csc(CN2CCC(CO)(Cc3ccccc3)CC2)n1	14
Cc1nnc2ccc(-c3ccc(NC(=O)c4ccco4)cc3)nn12	5
COC(=O)Cc1ccc(NC(=S)N2CCN(c3cc(Cl)ccc3C)CC2)cc1	8
COc1ccc(CNC(=O)c2ccc(Cn3nc(C)c([N+](=O)[O-])c3C)o2)cc1	20
CC(C)(C)NC(=O)COC(=O)CCC(=O)c1ccc(F)cc1	8
COC(=O)[C@@]1(Cc2ccc(F)cc2)[C@H]2c3cc(C(=O)N4CCCC4)n(CCc4ccc(O)c(O)c4)c3C[C@H]2CN1C(=O)c1ccccc1	-1
CCCN1CCc2[nH]c(=S)[nH]c(=O)c2C1	16
CCCCCCOc1ccc(C(CC(=O)NC)C(=O)O)cc1 (stereo not drawn)	11
Cc1nn(C)c(Nc2ccc(Br)cc2)c1Br	10
Cc1ccc(N2C(=O)N(CC(=O)Nc3ccc(C)cc3C)C(=O)C2C)cc1 (stereo not drawn)	14
CCC(C)NC(=O)c1cccc(OCc2c(C)noc2C)c1 (stereo not drawn)	6
CCN(c1cccc2ccccc12)S(=O)(=O)c1ccc(Cl)nc1	19
CC(=O)C1=C(C)N(CC2CC2)C(=O)N[C@H]1c1cccs1	3
COCC(=O)Nc1ccc2c(c1)OCO2	-1
COc1ccc(/C=C/C(=O)NC(=S)NNC(=O)c2ccco2)cc1	13
O=C(NC1=NCCS1)C1CC(=O)N(c2ccc(Cl)cc2)C1 (stereo not drawn)	6
CC(C)C(=O)Nc1cccc(NC(=O)c2ccc(Cl)cc2Cl)c1	11
O=C(NN1C(=O)c2ccccc2C1=O)C1CC2CCC1C2 (stereo not drawn)	25
CC(=O)N/C(=C\c1ccccc1)C(=O)OCC(=O)NC1CCCC1	10
O=C(CSc1nnc(-c2ccco2)o1)c1ccc(O)cc1O	5
COc1ccc(COCC(O)CN(Cc2ccccc2)C(C)C)cc1OC (stereo not drawn)	12
CC(=O)c1ccc(-c2nnc(CCC(=O)N(C)Cc3cnc4ccccn34)o2)s1	14
O=S(=O)(NN=C1CCCCC1)c1ccccc1	2

Among those listed so far, 2 have an NH in an aromatic ring:
SMILES	Calb biofilm kill
Nc1nc(N2CCN(c3cccc(Cl)c3)CC2)n[nH]1	7
CCCN1CCc2[nH]c(=S)[nH]c(=O)c2C1	16

Carrying on.
SMILES	Calb biofilm kill
O=C(/C=C/c1ccccc1Cl)Nc1ccc(Cl)cn1	9
O=C(NCCc1ccccc1)c1n[nH]c(=O)c2ccccc12	4
Cc1cc(/C=C(\C#N)C(=O)NCc2ccco2)c(C)[nH]1	-9
O=C(NNC(=O)c1cc([N+](=O)[O-])ccc1Cl)c1cccs1	7
Cc1c(-c2ccc(Br)cc2)nc2ccccn12	8
CC[C@H](C)C(=O)O[C@H]1CCC=C2C=C[C@H](C)[C@H](CC[C@@H]3C[C@@H](O)CC(=O)O3)[C@H]21	6
COc1cccc(/C=N/n2c(-c3cc(C)[nH]n3)n[nH]c2=S)c1	16
CCCCN1C(=O)C2Cc3c([nH]c4ccccc34)CN2C1=S (stereo not drawn)	28
Cc1nc([N+](=O)[O-])cn1CC(O)c1ccc(Cl)cc1 (stereo not drawn)	14
Cc1cccc(-n2c(CNC(=O)c3ccc(S(=O)(=O)N(C)C)cc3)nnc2SCC(=O)Nc2ccc(F)cc2)c1	17
CC1(C)Cc2cccc(Oc3ccc(S(=O)(=O)N4CCCCC4)cn3)c2O1	23
Cc1ccc(CNC(=O)Cn2c(=O)n(-c3ccccc3)c(=O)c3sccc32)cc1	0
CCOC(=O)c1[nH]ncc1CN1CCC(Cc2cccc(OC)c2)(C(=O)OCC)CC1	26
O=CC1=C(N2CCOCC2)/C(=C\c2ccccc2)CC1	15
Cc1cc(N2C(=O)C3C4CC(C(Br)C4Br)C3C2=O)no1 (stereo not drawn)	-4
O=C(N/N=C/c1cccnc1)/C(=C\c1cccs1)NC(=O)c1ccccc1	9
O=C(COC(=O)C1CCC(=O)N1)Nc1ccc(Br)cc1 (stereo not drawn)	13
Cn1cnc([N+](=O)[O-])c1S(=O)(=O)c1cccc(Cl)c1	8
CC1CN(C(=O)Nc2cccc(C(F)(F)F)c2)CC(C)O1 (stereo not drawn)	-9
Cn1c(=O)n(C)c2cc(/C=N/NC(=O)c3cc4cc(Br)ccc4o3)ccc21	6
Cc1nc(C(=O)NCC(=O)c2ccccc2)c(C(F)(F)F)o1	23
COCCCNC(=S)Nc1ccc(C)cc1	13
CC(=O)Cc1nsc(NC(=O)c2oc(-c3ccccc3Cl)cc2C)n1	9
COc1ccc(C2C(C(C)=O)=C(O)C(=O)N2c2nccs2)c(OC)c1 (stereo not drawn)	11
O=C(NCCCCNC(=O)c1cccs1)c1cccs1	20
O=C(NNC(=O)c1ccccc1C(=O)O)c1ccc(-c2ccccc2)cc1	7
CCOc1ccc(CN(C)CC(=O)Nc2ccc3c(c2)CCC3)cc1OC	21
CC1(C)COC(/C=C/c2cccc([N+](=O)[O-])c2)=N1	8
NC(=O)COC(=O)CC12CC3CC(CC(C3)C1)C2	17
COc1ccc(S(=O)(=O)N(C)C)cc1NC(=O)[C@H](Cc1ccccc1)N1C(=O)c2ccccc2C1=O	11
Cc1ccc(NC(=O)CN(C)S(=O)(=O)c2cccc3cccnc23)c(C)c1	23
COc1cc(/C=N/OCC(=O)Nc2ccc(OC(F)F)cc2)ccc1OCc1ccccc1	13
CCOC(=O)Cc1ccc(NC(=O)c2ccccc2Br)cc1	27
CNC(=O)CSc1nnc(C2CC2)n1-c1ccccc1	-7
Cc1noc(C)c1COc1ccc(C(=O)NCCc2ccccn2)cc1	3
O=C(Nc1ccccc1)NC1CCN(Cc2ccccc2)CC1	8
COC(=O)C1C(c2ccccc2)NC(=O)NC1(O)C(F)(F)Cl (stereo not drawn)	3
O=C(N1CCCC1)C12CC3CCC(CC(C3)C1)C2	23
COc1ccc(-c2nnc(NC(=O)C3=COCCO3)o2)cc1	14
O/N=C(/CCc1ccccc1)c1ccc2c(c1)OCCO2	4

Quoted from above for reference:
SMILES	Calb biofilm kill
COCCCNC(=S)Nc1ccc(C)cc1	13
CC(=O)Cc1nsc(NC(=O)c2oc(-c3ccccc3Cl)cc2C)n1	9
COc1ccc(C2C(C(C)=O)=C(O)C(=O)N2c2nccs2)c(OC)c1 (stereo not drawn)	11
O=C(NCCCCNC(=O)c1cccs1)c1cccs1	20
O=C(NNC(=O)c1ccccc1C(=O)O)c1ccc(-c2ccccc2)cc1	7
CCOc1ccc(CN(C)CC(=O)Nc2ccc3c(c2)CCC3)cc1OC	21

Next part
SMILES	Calb biofilm kill
COc1cccc(C(C(=O)NC(C)(C)C)N(CCC(C)C)C(=O)CCC(=O)Nc2cc(C)on2)c1OC (stereo not drawn)	11
Cc1c(C(=O)Nc2cccc(Cl)c2)c2ccccn2c1CCc1ccncc1	12
CN(C)c1nc(N/N=C/c2c[nH]c3ccccc23)nc(N2CCOCC2)n1	7
CCCCNc1nc(-c2ccccc2)cc(C(F)(F)F)c1C(N)=O	-6
O=C(N/N=C/c1c[nH]c2ccccc12)c1cc(-c2ccccc2)n[nH]1	14
Cc1cc(C)c2nc3sc(C(=O)N4CCOCC4)c(N)c3cc2c1	12
CCN(CC)S(=O)(=O)c1cc(NC(=O)COC(=O)CCC(=O)c2cccs2)ccc1C	16
O=C(CSCc1ccccc1)Nc1ccc2c(c1)C(=O)NC2=O	9
O=C(NCc1nnc(SCC(=O)N2CCC(Cc3ccccc3)CC2)o1)c1ccco1	4
O=C(NC1CCCCC1)C(c1cccnc1)N(C(=O)CCl)c1ccccc1Cl (stereo not drawn)	16
CC1(C)OC(=O)C(=Cc2ccc[nH]2)C(=O)O1	21
CCCCSc1cnn(-c2ccccc2)c(=O)c1SCCCC	3
CCOC(=O)c1sc(NC(=O)CSc2n[nH]c(CC)n2)nc1C	10
COc1ccc(C(=O)O/N=C(\N)Cc2ccc([N+](=O)[O-])cc2)c(OC)c1	9
O=C(COc1cccnc1[N+](=O)[O-])c1ccc(Cl)s1	7
Clc1cnc(N/N=C/c2ccco2)c(Cl)c1	9
CCN(C(=O)CSc1nnc(-c2cccs2)o1)C1CCS(=O)(=O)C1 (stereo not drawn)	19
COc1ccc(NC(=O)CCCn2c(=O)c3sccc3n(Cc3ccc(C)cc3C)c2=O)cc1	16
COc1ccc(OC)c(C2C3=C(N=c4s/c(=C\c5cccc(O)c5)c(=O)n42)c2ccccc2CC3)c1 (stereo not drawn)	17
COc1ccc(Cl)cc1NC(=S)NNC(=O)c1cccnc1	-1
C=CCn1c(C)cc(/C([O-])=C(/C(=S)Nc2ccc(OC(F)F)cc2)[n+]2ccc(N(C)C)cc2)c1C	13
CN1CCN(C(=O)/C(=C/c2cccs2)NC(=O)c2cccs2)CC1	13
Cn1cc(/C=C/C(=O)N2CCCC(C(=O)c3ccc(C(F)(F)F)cc3)C2)cn1 (stereo not drawn)	11
CC1(C)OC(=O)C(=Cc2ccc(-c3ccc(Cl)c(C(=O)O)c3)o2)C(=O)O1	7
O=C(OCc1nc2ccc(Cl)cc2n1CCO)c1ccccc1C(=O)c1ccccc1	10
CC(=O)NNc1ncnc2ccccc12	11
CCOC(=O)Cn1nc(C)c(NC(=O)COc2ccc([N+](=O)[O-])c(C)c2)c1C	7
Cc1ccc(NC(=O)c2ccc(OC(=O)COc3ccc(Cl)c(C)c3)cc2)cc1	12
CC1CN(CC(=O)Nc2ccccc2Sc2ccccc2)CC(C)O1 (stereo not drawn)	-1
COc1cccc(C2=NOC(C(=O)Nc3cc(C)on3)C2)c1OC (stereo not drawn)	3
Cc1[nH]n(C(N)=S)c(=O)c1N=Nc1ccc(S(=O)(=O)N2CCCC2)cc1	13
CN(C)/N=C/c1ccc(/C=N/NC(N)=S)o1	5
CCOC(=O)c1cc(C)sc1/N=C/C1C(=O)CC(C)(C)CC1=O	6
Cc1ccc(N(CC(=O)NC(C)(C)C)C(=O)CNC(=O)c2cccs2)cc1C	15
CN(C(=O)/C=C/c1ccccc1)C1CCS(=O)(=O)C1 (stereo not drawn)	-3
CCN(CC)S(=O)(=O)c1ccc(N2CCOCC2)c(NC(=O)c2cccc3ccccc23)c1	17
COc1ccc(NC(=O)C(CC(C)C)NC(=O)C2CCC(C)CC2)c(OC)c1 (stereo not drawn)	-2
O=C(NCC1OCCc2ccccc21)c1ccc(NC(=O)c2ccccc2Cl)cc1 (stereo not drawn)	11
C#CCNc1c2c(nc3ncnn13)CC(C)CC2 (stereo not drawn)	23
O=C(COc1cccnc1[N+](=O)[O-])Nc1ccc(N2CCOCC2)cc1	9

Fetched by structure from the list above, two records:
SMILES	Calb biofilm kill
O=C(OCc1nc2ccc(Cl)cc2n1CCO)c1ccccc1C(=O)c1ccccc1	10
CC1CN(CC(=O)Nc2ccccc2Sc2ccccc2)CC(C)O1 (stereo not drawn)	-1

Some of these compounds in order of length of the SMILES, ascending:
SMILES	Calb biofilm kill
CCCCSc1cnn(-c2ccccc2)c(=O)c1SCCCC	3
COc1ccc(-c2nnc(NC(=O)C3=COCCO3)o2)cc1	14
Cn1cnc([N+](=O)[O-])c1S(=O)(=O)c1cccc(Cl)c1	8

Next section
SMILES	Calb biofilm kill
CCOC(O)[C@H]1N[C@@H](c2ccc(Cl)cc2)[C@@H]([N+](=O)[O-])[C@@H]1c1ccccc1 (stereo partly drawn)	13
O=C(c1ccc(S(=O)(=O)N2CCCCC2)cc1)N1CCc2ccccc2C1	14
CN(C)/C=N/C(=S)Nc1ccc(Cl)cc1	-8
Cc1c(C(=O)c2ccc(Br)cc2)c(=O)n(C)c(=O)n1C	10
O=C(Nc1cccc(C(F)(F)F)c1)C12CC3CC(CC(C3)C1)C2	12
COc1ccc(C(=O)CCNc2ccc(C)c(Cl)c2)cc1	16
CN(C)S(=O)(=O)c1cccc(NC(=O)Cn2cc(C(F)(F)F)cc(Cl)c2=O)c1	5
O=C(NC(C(=O)N/N=C/c1cccnc1)c1n[nH]c(=O)c2ccccc12)c1ccccc1 (stereo not drawn)	12
O=C(Nc1cccc(Cl)c1)N1CCN(C2c3ccccc3-c3ccccc32)CC1	16
c1ccc(-c2nc(-c3ccccn3)no2)cc1	4
Cc1cccc(-n2c(SCc3ccc(C#N)cc3)nnc2-c2c[nH]c3ccccc23)c1	19
